# NPYLR7 agonist = agonists of mosquito NPYLR7 receptor, primary screen, cell-based, Aedes aegypti, calcium fluorescence, mosquito biting behavior. 270,000 tested, 0.15% active. HEK293T NPYLR7/Galpha15, GCaMP6s calcium fluorescence. Aedes aegypti neuropeptide Y-like receptor 7 (NPYLR7). activation, % at 10 µM. AID 1259423, 2018; in the data active means activation above about 40%;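 further: 0% = vehicle and 100% = reference agonist at the receptor; some compounds past the cut are filed as inactive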
# NPYLR7 agonist max-min = also measured in NPYLR7 agonist; calls as there; activation, %; measured here: Max-Min RFU normalised activation; some inactives read as strong as hits;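 span of the calcium signal over five minutes; 0% = vehicle and 100% = native peptide agonist; compound fluorescence can raise it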
# Starred values were filed as active, the others as inactive; & = joins results of further samples. Some of the compounds tested. The share of hits here may be higher or lower than overall.
SMILES,NPYLR7 agonist,NPYLR7 agonist max-min
COCCN1CCCC2(CCN(Cc3ccc(Oc4ncccn4)cc3)C2)C1 (centres undefined),3,2
Cc1nc2ccc(C(=O)N(C)CCC(O)c3ccccc3)cc2nc1C (centres undefined),-3,-4
Cc1cc(C=NNC(N)=S)c(O)c(C=NNC(N)=S)c1,7,8
NS(=O)(=O)c1ccc(CCNC(=O)C2CCN(c3ncc(C(F)(F)F)cc3Cl)CC2)cc1,4,4
C=CC[C@H]1CC(C)=C[C@H](CC=C)N1C(=O)CCN1CCCC1=O,2,3
Cc1ccsc1CN1CCOc2ccc(CN3CCC(Oc4cccnc4)CC3)cc2C1,3,0
CC(C#N)c1cccc(C(=O)N2CCOC(c3ccccc3)C2)c1 (centres undefined),3,8
Cc1cc(OCCCN2CCOC2=O)nnc1C,0,-1
CC(C)C12C=CC(C)(CC1)C1C(=O)N(c3ccccc3)C(=O)C12 (centres undefined),0,-3
CCNc1ncc(-c2nn3c(C(C)C)nnc3s2)cn1,-1,-5
CCCCN(Cc1cccn1Cc1cccc(C)c1)C(=O)CN(CCC)C(=O)c1cccc(Br)c1,0,11
Cc1noc(C)c1CC1(C)C(=O)Nc2cc(-c3ccccc3Cl)ccc21 (centres undefined),-2,9
O=C1NC2(CCC(c3ccccc3)CC2)Nc2c1cnn2-c1ccc(F)cc1 (centres undefined),0,0
CNc1nc(OC)nc(Oc2ccc(C(=O)OC)cc2)n1,-2,-3
Cc1cc(=O)[nH]c(SCc2cc(-c3ccco3)on2)c1C#N,-2,-1
CCONC(=O)c1csc(CSc2nnc(-c3ccncc3)n2-c2cccc(Cl)c2)n1,17,17
O=C(c1nnn(-c2ccccc2)c1-c1ccccc1)N1CCOCC1,-9,-9
O=C(N1CCN(c2nccc(-c3ccc4c(c3)OCO4)n2)CC1)C(F)(F)C(F)F,5,2
CSCc1ccc(C(=O)N2CCC(n3nc(C)cc3C)C2)o1 (centres undefined),13,9
Cc1ccoc1C(=O)N(C)Cc1nc(C(C)C)no1,-7,-16
COc1cccc(-c2cc(C(=O)N3CCCC3)n3nc(C(C)(C)C)cc3n2)c1,10,16
COc1cccc(-c2noc3c2CN(C(=O)C#Cc2ccccc2)CC3)c1,19,8
N#Cc1cccnc1Sc1nnc(-c2ccccc2Cl)o1,2,16
CC(C)CC1NC(=O)c2ccccc2N(CC(=O)N2CCc3ccc(Br)cc3C2)C1=O (centres undefined),1,4
CC(c1ccc2c(c1)OCCO2)N(C)C(=O)c1cccc(-n2cnnc2)c1 (centres undefined),-6,-11

# Of the compounds above, these have an aryl methoxy group:
SMILES,NPYLR7 agonist,NPYLR7 agonist max-min
CNc1nc(OC)nc(Oc2ccc(C(=O)OC)cc2)n1,-2,-3
COc1cccc(-c2cc(C(=O)N3CCCC3)n3nc(C(C)(C)C)cc3n2)c1,10,16
COc1cccc(-c2noc3c2CN(C(=O)C#Cc2ccccc2)CC3)c1,19,8

# The results go on:
SMILES,NPYLR7 agonist,NPYLR7 agonist max-min
O=C(CC(NCCC1=CCCCC1)C(=O)O)Nc1ccccc1Cl (centres undefined),2,0
CCN(Cc1ccncc1)C(=O)c1cccc(S(=O)(=O)N2CCOCC2)c1,9,7
O=c1[nH]c2ccnc([N+](=O)[O-])c2[nH]1,-2,-10
CS(=O)(=O)N1C[C@H](Oc2ccccn2)[C@@H]2C[C@H]1Cc1sc(N)nc12,0,12
CC1=C2C(CCS2(=O)=O)CC2(C1)C(=O)OC(C)(C)OC2=O (centres undefined),2,42
CCn1ccc(C(=O)N=c2sc3cc(C)c(C)cc3n2CCOC)n1,1,0
CCc1ccc(NC(=O)Nc2ccc(N3CCCC3)c(C(=O)NCc3ccccc3)c2)cc1,-3,0
C=CCNc1ccccc1C(=O)NCc1c(C)n[nH]c1C,5,3
O=C(NC1CC1)c1cnn(CC(F)(F)F)c1-c1ccccc1,9,9
COC(=O)Nc1cccc(C(=O)Nc2cc(C#N)cn2C(C)(C)C)c1,9,3
COc1nc(Nc2ccc(OC)c(Cl)c2)nc(OC)n1,6,4
Cc1c(C(=O)N2CCCC2)sc2nc(-c3cccc([N+](=O)[O-])c3)cn12,-2,-4
COc1cccc(-n2c(SCc3c(F)cccc3Cl)nc3c(c2=O)SCC3)c1,-3,-8
CCN(CC)C(=O)Oc1ccc2c(ccn2Cc2ccc(C(F)(F)F)cc2)c1-c1cc(C)cc(C)c1,-6,-13
C=CCN1C(=O)C(CC(=O)Nc2ccc(Cl)cc2)SC1=Nc1nccs1 (centres undefined),-4,-9
CC1CN(C(=O)C2CC(=O)N(C)C2c2cccnc2)CC1N(C)C (centres undefined),3,2
COC(=O)C1=C(C)NC(C)=C(C(=O)OC)C1c1ccc(OC(=O)c2ccc(C(C)(C)C)cc2)cc1,-7,-11
O=C(NCc1ccc(S(=O)(=O)N2CCOCC2)cc1)c1ccoc1,0,82
Cc1nc(CN2C(=O)NC(Cc3ccc(F)cc3)(C3CCNCC3)C2=O)co1 (centres undefined),-8,-10
CN(CC(=O)N1CCOCC1)C(=O)c1ccc2c(=O)n(-c3ccccc3)c(=O)[nH]c2c1,3,-1
C(=N/n1c(-c2ccc3c(c2)OCCO3)csc1=NC1CC1)/c1ccccn1,2,13
CCOc1ccc(CC(=O)Oc2cc(C)[nH]c(=O)c2[N+](=O)[O-])cc1,-3,-3
CC(C)(C)C1CCC(OC(=O)CCC(=O)NCc2ccccc2)CC1 (centres undefined),-19,-25
Clc1ccc(-c2noc(CSc3nnc(NC4CC4)s3)n2)cc1,3,4
COc1ccc(NC(=O)N2CCN(c3ccc(Nc4cccnc4)nn3)CC2)cc1OC,4,-4
# (more compounds)
SMILES,NPYLR7 agonist,NPYLR7 agonist max-min
O=C(Nc1n[nH]c(CSc2nc3ccccc3s2)n1)c1ccccc1,-12,-23
CCn1c(CC2CCN(C(=O)c3cnccc3C)CC2)nn(C)c1=O,15,8
OC(c1ncccn1)C1CCCC1 (centres undefined),19,12
Cn1c(CN2C(=O)NC(C)(c3ccc(Cl)cc3)C2=O)cc(=O)n(C)c1=O (centres undefined),6,3
CC1CCC2=C(C1)SC1NC(c3ccccc3)NC(=O)C21 (centres undefined),2,3
COc1cc(S(=O)(=O)Nc2onc(C)c2C)ccc1Br,8,3
CCc1nc(C)nc(N2CCN(C(=O)c3ccc(F)cc3)CC2)c1Cc1ccccc1F,6,9
N#Cc1ccccc1S(=O)(=O)N(Cc1ccc(F)cc1)C1CC1,4,1
COc1cc(SC#N)ccc1NC(=O)N=Cc1c(C)c(C#N)c(=O)n(CCc2ccccc2)c1O,8,10
S=C(Nc1cccnc1)NC1CCCc2ccccc21 (centres undefined),-3,4
Cc1cc(N2CCC(c3ccc(O)cc3)CC2)n2nc(C(F)(F)F)nc2n1,9,5
O=C(Nc1cccc(-c2cccc(F)c2)c1)C1CCN(CC2CC2)CC1,-7&0,-7&-2
CN(C)C(=O)CN1C(=O)C(CCC(=O)NCc2ccc(N(C)C)cc2)NC(=O)c2ccccc21 (centres undefined),15,12
O=C(NCCc1cccnc1)C1CC=CCC1C(=O)N1CCc2ccccc2C1 (centres undefined),-8,-15
CC(C)CN(Cc1cc(NC(=O)C2CCCC2)ccc1N(C)C)C(=O)Cc1cccs1,-7,1
O=S(=O)(NC1(c2ccc3c(c2)OCCO3)CCCC1)c1c(F)cccc1F,11,8
CC(C)NC(=O)N(Cc1cccc(C(F)(F)F)c1)CC1CC(c2ccc3c(c2)OCO3)=NO1 (centres undefined),18,30
CCC(C)(C)NC(=O)c1cccnc1Nc1cccc(Cl)c1,-5,-12
Oc1[nH]c2ccc(Br)cc2c1N=Nc1ccc2c(Cl)cc(Cl)c(O)c2n1,-5,-11
CCOc1ccccc1CNC(=O)c1ccc(-c2cc(-c3cccc4ccccc34)[nH]n2)cc1,-4,1
Cc1cc(C)c[n+](C2=C(c3c(C(C)C)[nH]n(-c4ccccc4)c3=O)C(=O)N(CC(C)C)C2=O)c1,6,2
Cc1cc(C)c2c(=O)[nH]c(SCCOc3ccccc3F)nc2n1,8,7
Cc1nnc(NC(=O)c2ccc3c(c2)OCCO3)s1,6,8
COc1ccc(C2=NN(C(=O)CN(C)C3CCCCC3)C(c3ccc(Cl)cc3)C2)cc1 (centres undefined),8,6
CCOC(=O)c1cnc2cc(C(F)(F)F)ccc2c1N1CCC(C(=O)OC)CC1,-4,-5
# Continuation:
SMILES,NPYLR7 agonist,NPYLR7 agonist max-min
CCN1CCN(c2cc(C(F)(F)F)nc(SCc3ccc(C(=O)NCc4ccc5c(c4)OCO5)cc3)n2)CC1,7,11
Cc1nc(C(F)(F)F)ccc1C(=O)N1CCN(c2nc3nccc(-c4ccc5c(c4)OCO5)n3n2)CC1,17,14
CCNC(=O)N1CCSC12C(=O)N(Cc1cccc(C#N)c1)c1ccc(C)cc12 (centres undefined),3,6
CNc1nc2cnc(-c3ccsc3)cc2n1Cc1ccccc1,12,3
COc1ccccc1C(=O)N1CCN(C(C(=O)NCc2ccc3c(c2)OCO3)C2CCCC2)CC1 (centres undefined),5,3
CC(C)c1nc(SCc2ccccc2F)c2c(=O)n(C)c(=O)n(C)c2n1,8,12
O=CN1CCCN(C(=O)c2ccc(-c3cc(-c4ccccc4)n[nH]3)cc2)CC1,-1,7
COc1cc(CN2CCn3nc(C(=O)N4CCc5ccccc5C4)cc3C2=O)cc(OC)c1,-2,-8
NC(=O)CN(Cc1ccc(Br)cc1)C(=O)c1cc2c(s1)CCC2,11,10
COC(=O)c1ccc(CSc2nnc(-c3ccccc3Cl)n2-c2ccccc2C)o1,-1,0
Cc1ccc(OCC(=O)Nc2nccs2)c(C)c1,3,-2
COc1ccc2[nH]c(CNC(=O)c3cc(C)[nH]n3)cc2c1,-5,-7
CCn1c(C2CCN(Cc3coc4ccc(C)cc4c3=O)CC2)nn(C)c1=O,5,4
Fc1ccc(NC(=S)NCCN2CCOCC2)c(F)c1F,2,2
Cc1c(-c2cc(C(=O)N3CCC4(CCCN(C)CC4)CC3)[nH]n2)cnn1C,3,-2
Cc1ccc(C2=Nc3ncnn3C(c3ccc(Cl)cc3Cl)C2)cc1 (centres undefined),-2,-5
CN(C)C(=O)CN1CCC2(CC1)Nc1ccccc1C(=O)N2C1CCCC1,0,27
O=C1C2CC=C(Cl)CC2C(=O)N1CCCN1CCN(CCCN2C(=O)C3CC=C(Cl)CC3C2=O)CC1 (centres undefined),11,5
Cc1nc(NCCNS(=O)(=O)c2ccc3cccc4c3c2CC4)cc(-n2ccnc2C)n1,-12,-18
Cn1cc(C=C2SC(=NC3CCCCC3)NC2=O)cn1,6,13
Cc1ccccc1-c1noc(-c2nnn(-c3ccccc3Br)c2C)n1,3,-5
O=C1C2C3C=CC(C4CC34)C2C(=O)N1c1ccncc1 (centres undefined),5,3
Cc1ccc(-n2nc(C(C)(C)C)cc2NC(=O)CN(Cc2ccco2)C(=O)c2ccccc2Cl)c(C)c1,-4,-2
COCCOc1ccc(NC(=O)N(C)C(C)C2(C)CC2)cn1 (centres undefined),134*,181*
c1cc2c(cc1CN1CCN(Cc3ccc4c(c3)OCO4)CC1)OCO2,1,-3

# 6 entries from above, tab-delimited.
SMILES	NPYLR7 agonist	NPYLR7 agonist max-min
Cc1nc(C(F)(F)F)ccc1C(=O)N1CCN(c2nc3nccc(-c4ccc5c(c4)OCO5)n3n2)CC1	17	14
CCNC(=O)N1CCSC12C(=O)N(Cc1cccc(C#N)c1)c1ccc(C)cc12 (centres undefined)	3	6
CNc1nc2cnc(-c3ccsc3)cc2n1Cc1ccccc1	12	3
COc1ccccc1C(=O)N1CCN(C(C(=O)NCc2ccc3c(c2)OCO3)C2CCCC2)CC1 (centres undefined)	5	3
CC(C)c1nc(SCc2ccccc2F)c2c(=O)n(C)c(=O)n(C)c2n1	8	12
O=CN1CCCN(C(=O)c2ccc(-c3cc(-c4ccccc4)n[nH]3)cc2)CC1	-1	7

# The listing picks up, repeating the two entries before the break.
SMILES,NPYLR7 agonist,NPYLR7 agonist max-min
COCCOc1ccc(NC(=O)N(C)C(C)C2(C)CC2)cn1 (centres undefined),134*,181*
c1cc2c(cc1CN1CCN(Cc3ccc4c(c3)OCO4)CC1)OCO2,1,-3
CN(C)CCN1C(=O)C(O)=C(C(=O)c2ccco2)C1c1ccco1 (centres undefined),16,12
Cc1ccc(NC(=O)CSc2nnnn2C2CC2)c2cccnc12,12,7
COCCN(Cc1nc(C(=O)N2CCN(Cc3ccc4c(c3)OCO4)CC2)cs1)C(=O)Nc1ccc(OC)cc1,16,19
CSCCn1c(=NC(=O)C2=COCCO2)sc2cc(C)c(C)cc21,2,-2
CCOC(=O)CNC(=O)Cn1cnc2c(nnn2CC)c1=O,0,23
CC(c1ccon1)N(C)C(=O)c1ccc2nc(Cc3ccccc3F)oc2c1 (centres undefined),4,-2
CCNC(=O)C1(C)CCCN(Cc2ccc(C(C)C)cc2)C1 (centres undefined),-8,-6
NC(=O)c1cccc(C2NC(=O)CN2Cc2ccccc2)c1 (centres undefined),10,5
COc1ccc(Cl)cc1-n1c(C)c(C)n2c3c(=O)n(CC(C)=O)c(=O)n(C)c3nc12,-1,-3
CC(NC(=O)C1CCN(CCOc2ccccc2)CC1)c1cccc2ccccc12 (centres undefined),-9,-12
CC(C)CNC(=O)CSc1nc(Cl)cc(N2CCN(c3ccccc3F)CC2)n1,14,18
COCCNC(=O)c1cc(NC(=O)Nc2cccc(C)c2)ccc1N1CCCC1,15,28
O=C(c1cnc2ccccc2c1)N1CCN(Cc2ccc(-c3noc(C4CCCC4)n3)cc2)CC1,0,1
CC(C)COc1nc(-c2ccc(Cl)c(Cl)c2)n(-c2ccc(NC(=O)COc3ccccc3)cc2)n1,-4,-6
CCOC(=O)c1ccc(Nc2cc(C)nc(-c3ccccc3O)n2)cc1,-17,-25
CC1CN(c2cc(Oc3cccc(F)c3)ncn2)CCN1Cc1ccc(Cl)cc1 (centres undefined),-6,2
Cc1cccc(C)c1NC(=O)/C=C/C1=CCCC1,0,-4

# Given with each value named: 2 of the compounds above.
CSCCn1c(=NC(=O)C2=COCCO2)sc2cc(C)c(C)cc21
  NPYLR7 agonist = 2
  NPYLR7 agonist max-min = -2

CCOC(=O)CNC(=O)Cn1cnc2c(nnn2CC)c1=O
  NPYLR7 agonist = 0
  NPYLR7 agonist max-min = 23

# Bioassay records from PubChem.
